# Source: PubChem
# Biofilm kill mix: mixtures killing C. albicans biofilm | C. albicans biofilm persisters + clotrimazole, fluorescence viability; primary screen in compound mixtures of four per well | AID 1242 | inhibition, % at 7.6 µM | 0.02% of 120,000 active;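 active = inhibition above 30.3% in the primary screen of four-compound pools, then above 30% when the compound was retested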;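 note: compounds exposed to preformed 24 h biofilms for 48 h; the number belongs to the whole pool; some results filed as inactive read as strong as hits; inactives centre near 12; 0% = biofilm with clotrimazole alone and 100% = kill control; retested singly at about 60 µM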
#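 Test system: C. albicans biofilms. Buffer or medium: RPMI/MOPS medium, pH 7.0. Timing: 48 h compound exposure at 37 °C. Technique: Alamar Blue fluorescence. Evaluation: percent inhibition of biofilm viability.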
# * hit, by the source's call. An excerpt (hit frequency here may not be typical).
SMILES,Biofilm kill mix
CCOc1ccccc1Nc1ccnc2cc(Cl)ccc12,7
COc1cc2c(cc1OC)CN(C(=O)CSc1nc(C)cc(C)c1C#N)CC2,15
CC(C)(Cc1ccc(O)cc1)NC(=O)CC(=O)N=Nc1c(O)[nH]c2ccc(Br)cc12,-2
O=C(CCn1c(=O)[nH]c2ccsc2c1=O)NCc1ccc(F)cc1,12
Cc1ccc(S(=O)(=O)Nc2ccc3c(c2)OCCO3)cc1C,-9
NC(=O)CC(NC(=O)Cc1ccc(Br)cc1)c1ccc(NCc2ccc(F)cc2)c([N+](=O)[O-])c1 (centres undefined),14
O=C(c1ccccc1)N1CCCc2ccccc21,7
N/C(=N/OC(=O)c1ccccc1F)c1nonc1N,34
CCCCC1=CC2=C(c3ccco3)C(=O)C(C)(OC(=O)c3ccc(OC)cc3)C(=O)C2=CN1CCCCO (centres undefined),8
CCOc1ccc(C2NC(=O)NC(C)=C2[N+](=O)[O-])cc1OC (centres undefined),17
Cc1cc(S(=O)(=O)N(Cc2cccs2)Cc2ccccc2F)ccc1-n1cnnn1,7
CCOC(=O)C1(CC2CCCCO2)CCN(S(=O)(=O)c2ccsc2)CC1 (centres undefined),13
CC(NC(=O)CN(c1cccc(C(F)(F)F)c1)S(=O)(=O)c1ccc(Cl)c([N+](=O)[O-])c1)c1ccccc1 (centres undefined),12
Cc1nonc1N1CCN(Cc2cn[nH]c2-c2ccc3c(c2)OCO3)CC1,16
CCCCC1=CC2=C(c3ccco3)C(=O)C(C)(OC(=O)c3ccc(OC)cc3)C(=O)C2=CN1C1CC1 (centres undefined),19
O=C(O)c1cc(-c2cccc(Cl)c2)nc2nc(N3CCCCC3)sc12,16
Cc1ccc(CSc2ccc(-c3cccs3)nn2)cc1,0
Cc1[nH]nc(NCCO)c1[N+](=O)[O-],10
CCOc1ccc(C2Nc3ccccc3C(CC)(CC)O2)cc1 (centres undefined),20
Cc1cccc(-n2c(N)c(-c3nc4ccccc4n3C)c3nc4ccccc4nc32)c1,11
NC(Cc1ccccc1)C(O)(c1ccccc1)c1ccccc1 (centres undefined),7
O=C1CCN(S(=O)(=O)c2cccs2)c2ccc(C(F)(F)F)cc2N1,13
COc1cc(C(=S)N2CCOCC2)ccc1OC(=O)c1cc([N+](=O)[O-])c(C)c([N+](=O)[O-])c1,9
O=S(=O)(NCC1CCCO1)c1ccc(-c2ccc(S(=O)(=O)NCC3CCCO3)cc2)cc1 (centres undefined),10
CN1CCCC(OC(=O)/C(C#N)=C/c2ccccc2)C1 (centres undefined),13
# (further entries)
SMILES,Biofilm kill mix
COc1cc2c(cc1NC(=O)c1ccc(C)c([N+](=O)[O-])c1)oc1ccccc12,8
NC(=O)c1cc2ccccc2o/c1=N\NC(=O)c1ccncc1,14
COc1ccc(CCNC(=O)Cn2nnc(-c3ccc(OC)c(OC)c3)n2)cc1OC,14
CC1=C(/C=N/Nc2ccc([N+](=O)[O-])cc2[N+](=O)[O-])C(C)(C)CCC1,17
CCOc1ncccc1C(=O)OCC(=O)Nc1ccc(C(N)=O)cc1,9
Cc1ccc(NC(=O)CNCC2CCCCC2)cc1S(=O)(=O)N(C)C,18
Cc1cc(C)n(/N=C/c2ccc(C(C)C)cc2)c(=O)c1C#N,0
COc1ccc(Cl)cc1NC(=O)CN(C)CC(=O)NC(C)c1ccccc1 (centres undefined),13
COCCCn1c(=O)cc(C)[nH]c1=S,26
CCOc1ccc(N2CC(C(=O)Nc3c(C)n(C)n(-c4ccccc4)c3=O)CC2=O)cc1 (centres undefined),10
N#CCc1c(C#N)c(N)nc(N2CCCC(O)C2)c1C#N (centres undefined),16
CCOC(=O)C1CC(=O)c2cc(OC)c(OC)cc2C1 (centres undefined),5
CCOC(=O)CN(C(=O)COc1nc(C)cc(C)c1C#N)c1ccc(F)cc1,7
CN(CCC#N)C(=S)Nc1ccc(F)cc1,16
C=CCn1c(=S)[nH]c2sc3c(c2c1=O)CCC3,9
CCn1c(NCc2cc(Cl)ccc2O)nc2ccccc21,16
O=C(CCCNc1ccccc1)N/N=C/c1cccs1,5
CCC(=O)c1ccc(-c2ccccc2)cc1,7
CC1(C)CC(=O)C2=C(C1)N(c1ccc(Cl)cc1)C(=O)C2(O)C(F)(F)F (centres undefined),5
CCCCOC(=O)C1CN(c2ccccc2)N=C1C(C)=O (centres undefined),15
CC(C)N(C)CCOC(=O)/C=C/c1ccccc1,3
COc1ccc(/C=C(/NC(=O)c2ccc(OC)c(OC)c2)C(=O)NCCc2c[nH]c3ccccc23)cc1,19
O=C(COC(=O)c1ccccc1NS(=O)(=O)c1cc([N+](=O)[O-])ccc1Cl)c1ccccc1,12
Cc1ccc(/C=C/C(=O)N2CCc3ccccc32)o1,2
CCc1ccc(OCC(=O)NC(=S)Nc2ccc(C(=O)O)cc2)cc1,18
# (listing goes on)
SMILES,Biofilm kill mix
CC1=Nc2cccc3cccc(c23)N1C,8
O=C(NC12CC3CC(CC(C3)C1)C2)N1CCN(c2ncccn2)CC1,20
O=C(CCCCCN1C(=O)c2cccc3cccc(c23)C1=O)N1CCOCC1,16
FC(F)Oc1ccc(NC(=S)N2CCc3ccccc32)cc1,-8
CCN(CC)CCN1CNC(=S)N(c2ccccc2OC)C1,21
COc1ccc(O[C@H]2C=C[C@@H](c3ccccc3)O[C@@H]2CO/N=C(\C)CCN2CCCCc3nc(C)c(C)cc32)cc1,6
O=C(COc1nncc2ccccc12)NCC(F)(F)F,17
COC(=O)c1cccnc1SCc1ccccc1,9
CCC1(C)SC(NC(C)=O)=NN1C(C)=O (centres undefined),13
COc1cccc(C(=O)NC2CCN(CC(=O)Nc3c(C)cc(C)cc3C)CC2)c1,11
COc1ccc(/C=C2\SC(=S)N(CCCC(=O)Nc3ccccn3)C2=O)cc1OC,15
N#C/C(=N/Nc1ccccc1[N+](=O)[O-])C(N)=S,22
COc1cc(C(=O)Nc2ccc(Oc3ncnc4sc(-c5ccccc5)cc34)cc2)cc(OC)c1OC,14
COc1ccc(-c2nc3cnccn3c2NC(C)(C)CC(C)(C)C)cc1O,1
CC(C)(C)OC(=O)NCCC(=O)N/N=C/c1cccc2nccnc12,22
Cc1cc(C)c2c(CCl)cc(=O)oc2c1,12
CN(C)c1ccc(/C=N/n2c(-c3cccnc3)n[nH]c2=S)cc1,4
C/C(=N\NC(=S)NC1CCCCC1)c1cccc(Br)c1,12
C/C(=N\Nc1nc(C)cc(=O)[nH]1)C1CC1,17
CN(C)/C=N/c1sc2c(c1C#N)CCCCC2,11
COc1ccccc1CN1C[C@@H]2C[C@@H](c3ccccc3OC)N3CCC[C@@]23C1=O,18
O=C(C1CC1)N1CCN(c2ccc([N+](=O)[O-])cc2-n2cccc2)CC1,23
CC(=O)c1ccc(Nc2cc(C)nc3nc(C)nn23)cc1,8
CCc1cccc(CC)c1NC(=S)N(CCN(C)C)C(C)c1cccnc1 (centres undefined),11
CCN(CC)S(=O)(=O)c1ccc(OC)c(NC(=O)c2cc(C)on2)c1,-10

# Some of the entries so far, with tabs:
molecule	Biofilm kill mix
COC(=O)c1cccnc1SCc1ccccc1	9
CCC1(C)SC(NC(C)=O)=NN1C(C)=O (centres undefined)	13
COc1cccc(C(=O)NC2CCN(CC(=O)Nc3c(C)cc(C)cc3C)CC2)c1	11
COc1ccc(/C=C2\SC(=S)N(CCCC(=O)Nc3ccccn3)C2=O)cc1OC	15
N#C/C(=N/Nc1ccccc1[N+](=O)[O-])C(N)=S	22

# The listing continues:
SMILES,Biofilm kill mix
CCN(CC(=O)NC1CCS(=O)(=O)C1)S(=O)(=O)c1ccc2ccccc2c1 (centres undefined),15
COc1ccccc1C1CCCN1Cc1nc(-c2cc3c(cc2Cl)OCO3)oc1C (centres undefined),-12
Cc1cc(C(=O)NC2Cc3ccccc3C2)c(C)o1,6
COc1ccc(-c2ccnc(SCC(=O)Nc3ccccn3)n2)cc1,7
Cc1ccc2nc(NNC(=O)c3ccc4c(c3)OCCO4)sc2c1,17
COC(=O)N/N=C/c1cc(N=Nc2ccccc2)ccc1O,11
Fc1ccc(C2=NOC(c3nnc(-c4ccccc4)o3)C2)cc1 (centres undefined),19
CNC(=S)N/N=C/c1c(Cl)cccc1Cl,9
COc1ccc(C(=O)N/N=C(\CCC(=O)O)c2ccc(C(C)(C)C)cc2)cc1OC,-10
COCCNC(=O)c1cccc(C)c1[N+](=O)[O-],12
CC(C)(C)NC(=O)CSc1nc2[nH]ncc2c(=O)[nH]1,10
O=C(c1ccccc1)n1ccn(-c2ccccc2)c1=S,14
Brc1ccc(CSc2nnc(-c3cccnc3)o2)cc1,-9
CCc1noc(C)c1C(=O)N1CCCC(C(=O)c2cc(F)ccc2F)C1 (centres undefined),23
CC(=O)N1N=C(c2ccc(C(C)(C)C)cc2)OC1(C)C,-5
Cn1c(=O)c(C(=O)COC(=O)c2cc(C(F)(F)F)nc3c(C(F)(F)F)cccc23)c(N)n(CC2CC2)c1=O,-2
CN(Cc1ccccc1)C(=S)NC(=O)C1CCCCC1,11
COCCNC(=S)N/N=C/c1ccc(OCc2ccc(C(=O)OC)cc2)c(OC)c1,16
COc1ccc(N(CC(=O)N2CCN(c3ccccc3F)CC2)S(=O)(=O)c2c(C)n[nH]c2C)cc1,16
CCn1c2ccccc2n2c(=O)c(=O)n(CC(=O)Nc3ccc(C(C)C)cc3)nc12,7
Cc1nc2c(c(C)nn2-c2ccccc2)c(C)c1CCC(=O)Nc1ccc(CN2CCCC2)cc1,17
O=C(Nc1ccccc1O)c1csc2c1CCCC2,3
Cc1ccc(S(=O)(=O)NCCCn2ccnc2)cc1,8
O=C(/C=C\Nc1ccccc1Br)c1ccc2c(c1)OCO2,17
O=C(NNC(=O)C1COc2ccccc2O1)c1cccc([N+](=O)[O-])c1 (centres undefined),7

# Looked up by structure from the entries so far:
SMILES,Biofilm kill mix
CN(CCC#N)C(=S)Nc1ccc(F)cc1,16
CC1(C)CC(=O)C2=C(C1)N(c1ccc(Cl)cc1)C(=O)C2(O)C(F)(F)F (centres undefined),5
CN(C)c1ccc(/C=N/n2c(-c3cccnc3)n[nH]c2=S)cc1,4
C=CCn1c(=S)[nH]c2sc3c(c2c1=O)CCC3,9
COc1ccc(N(CC(=O)N2CCN(c3ccccc3F)CC2)S(=O)(=O)c2c(C)n[nH]c2C)cc1,16
O=C(CCCNc1ccccc1)N/N=C/c1cccs1,5
COCCNC(=O)c1cccc(C)c1[N+](=O)[O-],12

# An excerpt taken from the entries so far, as a working copy:
SMILES,Biofilm kill mix
Cc1nc2c(c(C)nn2-c2ccccc2)c(C)c1CCC(=O)Nc1ccc(CN2CCCC2)cc1,17
O=C(Nc1ccccc1O)c1csc2c1CCCC2,3
Cc1ccc(S(=O)(=O)NCCCn2ccnc2)cc1,8
O=C(/C=C\Nc1ccccc1Br)c1ccc2c(c1)OCO2,17
O=C(NNC(=O)C1COc2ccccc2O1)c1cccc([N+](=O)[O-])c1 (centres undefined),7

# Continued:
SMILES,Biofilm kill mix
O=C(N/N=C/c1ccncc1)c1cccc(S(=O)(=O)Nc2ccc(Cl)cc2)c1,-10
COc1ccc(/C=C\C(=O)NCC(=O)N/N=C/c2ccc(O)cc2O)cc1,24
COc1ccc(C2Nc3ccccc3C(=O)N2c2ccc(Cl)cc2)cc1Cn1cc([N+](=O)[O-])cn1 (centres undefined),6
Fc1ccccc1Nc1nc2c(s1)CCc1ccccc1-2,25
CCCCCn1c(N)c(-c2nc3ccccc3o2)c2c([N+](=O)[O-])nn(C)c(=O)c21,12
O=C(Nc1ccc(-c2csc(Nc3ccc(Cl)cc3)n2)cc1)c1cccc(C(F)(F)F)c1,11
COC(=O)N/N=C\c1c(C)nn(-c2ccccc2)c1Cl,9
O=C(CSc1ncccn1)NCc1ccc(Cl)cc1,9
CC(C(=O)N1CCN(Cc2ccccc2)CC1)c1ccc([N+](=O)[O-])cc1 (centres undefined),24
C1CCCCCC(=NNc2nn[nH]n2)CCCCC1,17
O=C(C1CCN(S(=O)(=O)c2cccc([N+](=O)[O-])c2)CC1)N1CCOCC1,5
Cc1ccsc1/C=N/n1c(=S)[nH]nc(C)c1=O,23
CCOc1ccc(NC(=O)c2ccc(NC(=O)COC(=O)Cc3ccc(OC)cc3)cc2)cc1,12
CC(C)(C)NCC(=O)N/N=C/c1ccc(OCc2ccccc2)cc1,13
O=C(NN=C1CCCC1)c1[nH]c2ccc(Cl)cc2c1-c1ccccc1,9
Nc1nc(C2CCOCC2)cs1,14
Cc1ccc(N=Nc2ccc(O)c3ncccc23)cc1,13
O=C(NCC1CCCO1)C(c1cccs1)N(C(=O)c1ccc(CN2CCOCC2)o1)c1ccc(Cl)cc1 (centres undefined),9
COc1ccc(CNS(=O)(=O)NCc2ccc(OC)c(OC)c2)cc1OC,16
Cc1cccc(NC(=S)N(Cc2cccs2)Cc2cc3cc(C)ccc3[nH]c2=O)c1,10
O=c1[nH]c(SCc2nc3ccccc3c(=O)n2-c2ccccc2)nc2ccccc12,3
CCN(C(=S)Nc1ccc(OC(F)F)cc1)C1CCCCC1,9
O=C(c1cc(N2C(=O)C3C4CCC(C4)C3C2=O)ccc1Cl)N1CCN(c2ccccc2)CC1 (centres undefined),15
Cc1ccnc(N2CCC(C(=O)Nc3ccc4c(c3)OCCO4)CC2)n1,24
CC[C@@H](C)[C@@H](C(=O)N1CCN(C(=O)OC(C)(C)C)CC1)n1cc(CCCN=C(NC(=O)OC(C)(C)C)NC(=O)OC(C)(C)C)nn1,5
# Carrying on.
SMILES,Biofilm kill mix
CC(Cc1ccccc1)C(=O)NCc1ccccn1 (centres undefined),15
CCCCNC(=S)N1CCN(c2nc3ccccc3s2)CC1,6
Cc1cccc(NC(=O)CCC(=O)Nc2nnc(C(F)(F)F)s2)c1,34
COc1cccc(OC)c1C(=O)Nc1cccc(C(C)=O)c1,12
C/C=C/c1ccc(OCC(=O)Nc2cc(OC)c(OC)c(OC)c2)c(OC)c1,-4
CCOC(=O)CNC(=S)n1ncnc1N,4
COC(=O)/C=C/C(=O)Nc1cccc(C(F)(F)F)c1,10
